Bioassay records deposited in PubChem BioAssay by National Center for Advancing Translational Sciences (NCATS).
VDR inhibitor – vitamin D3 receptor (human) inhibition | P11473 | VDR-SRC2-3 peptide fluorescence polarization, 2 h | Potency, µM, without a hit: max response, negative = inhibition, usual class: inhibitors | 0.93% of 400,000 active; active means well fitted inhibition curve with a large enough effect; inconclusive means small, poorly fitted or top-dose-only effect, or another doubt; inactive means no such curve, though single readings can be large or run the other way; further: series mostly up to about 120 µM
Target sequence (P11473 whole entry, looked up): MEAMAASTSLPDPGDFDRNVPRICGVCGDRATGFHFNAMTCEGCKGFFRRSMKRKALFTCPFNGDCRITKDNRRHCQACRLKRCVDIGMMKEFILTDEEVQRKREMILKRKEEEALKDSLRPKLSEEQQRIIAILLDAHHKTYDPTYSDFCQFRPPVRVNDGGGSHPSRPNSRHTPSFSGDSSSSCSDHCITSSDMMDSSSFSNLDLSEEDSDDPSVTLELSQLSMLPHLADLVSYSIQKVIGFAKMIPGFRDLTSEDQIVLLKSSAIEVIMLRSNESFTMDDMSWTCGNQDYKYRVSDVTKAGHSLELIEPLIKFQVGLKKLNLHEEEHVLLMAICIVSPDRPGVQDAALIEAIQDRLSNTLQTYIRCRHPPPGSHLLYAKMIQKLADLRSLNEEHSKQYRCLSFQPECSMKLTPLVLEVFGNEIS
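FP read-out; VDR + SRC2-3 coactivator peptide; 23 nl compound by pintool; 2 h RT incubation; reagents held at 4 deg C, protected from light.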
Numbers without * were called inactive; ? = inconclusive; & = joins results of further samples. On the % scale 0 is the no-effect control and ±100 the full control effect; potency means the concentration at half of the fitted maximal effect.

No.	canonical_smiles	VDR inhibitor
1	O=C(NC1CCCC1)C(c1ccccn1)N(Cc1ccccc1F)C(=O)c1csnn1 (stereo not given)	-0.3%
2	O=C(OCC(=O)c1ccccc1Br)c1ccncc1	7.0%
3	O=C(/C=C/c1cccc([N+](=O)[O-])c1)N(c1ccccn1)c1ccccn1	-6.3%
4	COc1ccc(NC(=O)CSCC(=O)N(C)CC(=O)Nc2ccc(Cl)c(C(F)(F)F)c2)cc1	-11.0%
5	Cc1noc(C)c1S(=O)(=O)N1CCCC(C(=O)Nc2nccs2)C1 (stereo not given)	-0.4%
6	Cc1ccc(S(=O)(=O)N2CCCCC2)cc1NC(=S)NC(=O)c1ccco1	-20.5%
7	O=C(NC(=S)NCCc1ccc(Cl)cc1)c1ccco1	?
8	O=C(NC1CCCCC1)c1ccc(-c2ccccc2F)o1	7.4%
9	CCOc1ccc(Br)cc1/C=N/NC(=O)c1ccncc1	9.4%
10	COC(=O)C1(c2ccccc2)NC(c2cccs2)C2C(=O)N(C)C(=O)C21 (stereo not given)	-2.6%
11	CCOC(=O)C1(Cc2cccc(F)c2)CCN(Cc2nc(CC)[nH]c2C)CC1	17.1%
12	CCOc1ccc(-c2c(C)nn3c(C)c(C(=O)Nc4cc(C)cc(C)c4)cnc23)cc1OCC	7.3%
13	COc1cc2c(c(OC)c1OC)C(c1ccc(C)cc1)CC(=O)O2 (stereo not given)	-3.5%&-21.5%
14	CCOc1ccc(NS(=O)(=O)c2ccc3[nH]c(=O)c(=O)[nH]c3c2)cc1	9.9%
15	Cc1ccccc1OCc1nnc(SCC(=O)O)n1-c1cccc(Cl)c1	-0.7%
16	Cc1ccc2c(c1)N(CC(=O)NCc1ccco1)C(=O)C(C(C)C)O2 (stereo not given)	-1.5%
17	Cc1ccc(Cn2ccc(NC(=O)c3cc(-c4ccc(Cl)cc4)on3)n2)cc1	-8.3%
18	O=C(O)CCN1C(=O)/C(=C\c2ccc(-c3nc4ccccc4s3)o2)SC1=S	-9.2%
19	O=C1/C(=C\c2ccco2)SC(=S)N1c1ccc(O)cc1	-4.2%
20	CCN1CCN(C(=S)Nc2sc(C)c(-c3ccccc3)c2C(=O)OC)CC1	-10.8%
21	O=C(CCCN1C(=O)/C(=C/c2ccccc2)SC1=S)Nc1cccc(O)c1	-0.3%
22	Nc1nc(CSc2nc3ccccc3s2)nc(N2CCOCC2)n1	-0.4%
23	CCN1C(=O)C2(C(C#N)=C(N)Oc3n[nH]c(C(C)C)c32)c2ccccc21 (stereo not given)	9.3%
24	Cc1ccc(C)c(CN2C(=O)c3ccccc3S(=O)(=O)c3ccc(C(=O)N4CCOCC4)cc32)c1	-1.3%
25	CCOC(=O)CSC1=NC(=O)CS1	-21.2%
26	O=c1c2ccccc2nc2n1CCc1c-2[nH]c2ccccc12	4.4%&-9.8%
27	COCCn1c(=NC(=O)CCS(=O)(=O)c2ccccc2)sc2cc(C)ccc21	?
28	O=C(Nc1cccc(C(F)(F)F)c1)N1CCN(C(=O)Nc2cccc(C(F)(F)F)c2)CC1	12.5%
29	c1cncc(-c2csc(NCc3ccco3)n2)c1	-0.2%
30	CCOC(=O)c1c(-c2cccc([N+](=O)[O-])c2)csc1NC(=O)CCCOc1ccccc1OC	5.1%
31	CCOC(=O)[C@H]1[C@H]2COc3ccc(Cl)cc3[C@@H]2N2C(=O)CN(Cc3ccc(F)cc3)C(=O)[C@@]12C	-5.8%
32	O=C(NNC(=S)NC(=O)c1ccccc1)c1cccc([N+](=O)[O-])c1	-22.8%
33	Cc1cc(C)cc(OCC(=O)OCC(=O)NC2CCCC2)c1	-11.9%
34	CC(=O)c1ccc(NC(=O)C2CCCN(S(=O)(=O)c3ccc4c(c3)CCCN4C(C)=O)C2)cc1 (stereo not given)	5.4%
35	O=C1CN(C(=O)CCCc2c[nH]c3ccccc23)c2ccccc2N1	-10.7%
36	COc1cccc(NC(=O)C(=O)NCCCn2ccnc2)c1	-9.8%
37	O=C(O)c1ccc2c(=O)n(Cc3ccccc3)c(SCc3ccc([N+](=O)[O-])cc3)nc2c1	79.4µM*
38	O=C(c1cc(-n2cnnc2)ccc1Cl)N1CCN(c2nc(-c3ccccc3)cs2)CC1	13.3%
39	CCn1nc(C)c(NS(=O)(=O)c2ccccc2)c1C	-2.5%
40	CC1=C(C)CC(C(=O)N2CCN(Cc3ccccc3)CC2)C(C(=O)O)C1 (stereo not given)	-3.4%
41	COc1ccc(Nc2ncc(C(=O)N3CCN(Cc4ccccc4)CC3)c3ccccc23)cc1	-23.2%
42	COC(=O)CN(n1cnnc1)S(=O)(=O)c1ccc(C)cc1	7.8%
43	CCCN1CCN(c2ncnc3sc(C(=O)Nc4c(C)cc(C)cc4C)c(C)c23)CC1	7.5%
44	Cc1ccc(N=C2NC(=O)c3cc([N+](=O)[O-])ccc32)cc1	-5.3%
45	O=C(NCc1ccc(Cl)cc1)c1cnccn1	7.8%
46	CCOC(=O)c1cccc(-n2c(C)cc(C=O)c2C)c1	-17.3%
47	Cc1ccc(S(=O)(=O)CCC(=O)Nc2nnc(-c3ccc(F)cc3)o2)cc1	4.5%
48	O=C(NCc1ccc(Cl)cc1)C1CCN(S(=O)(=O)c2cccc3nonc23)CC1	2.7%&-7.1%
49	CCCn1nnnc1NC(=O)COc1ccc(Cl)c(C)c1	4.9%
50	COc1cccc(C(=O)NCCS(=O)(=O)N2CCCCCC2)c1	-9.6%

(more compounds)
No.	canonical_smiles	VDR inhibitor
51	O=C(COC(=O)COc1cccc(Br)c1)NCc1ccc2c(c1)OCO2	1.5%
52	CCN1CCN(c2ccc(S(=O)(=O)N3CCOCC3)cc2NC(=O)CC(C)C)CC1	-5.9%
53	CCOc1ncccc1C(=O)Nc1ccc2c(c1)OCCO2	1.0%
54	Brc1ccc(OCc2nc3ccccc3[nH]2)cc1	-3.7%
55	COc1cccc(NC(=O)C2CCC(CNS(=O)(=O)c3ccc4c(c3)CCCC(=O)N4)CC2)c1 (stereo not given)	9.8%
56	CCOc1ccc(NS(=O)(=O)c2ccc(OCC(=O)N3CCCC3)cc2)cc1	-2.7%
57	COc1cccc2c1C(=O)c1c(O)c3c(c(O)c1C2=O)C[C@@](O)(C(C)=O)C[C@@H]3O[C@H]1C[C@H](N)[C@H](O)[C@H](C)O1	?
58	COc1ccc(C2Nc3ccccc3C(=O)N2Cc2ccccc2)cc1COc1ccc([N+](=O)[O-])c(C)c1 (stereo not given)	-17.6%
59	CCOC(=O)c1[nH]c2cc3c(cc2c1NC(=O)CN1CC(C)CC(C)C1)OCO3 (stereo not given)	?
60	Brc1ccc(Oc2ncc(CN3CCN(c4ccccc4)CC3)s2)cc1	-2.9%
61	Cc1cc(C)cc(N(CC(=O)Nc2c(C)cc(C)cc2C)S(=O)(=O)c2c(C)nn(C)c2C)c1	-2.4%
62	COCc1cc(C)nc(Nc2ccc(C)cc2C)c1C#N	5.9%
63	Cc1ccc(N(C(=O)c2csnn2)C(C(=O)NC2CCCCC2)c2cccnc2)cc1C (stereo not given)	-3.2%
64	O=C(Cc1cc(C(=O)O)c2ccccc2n1)Nc1ccccc1	4.2%
65	CCCC1=Nc2cc(C(=O)NCCN3CCCC3)ccc2Sc2ccccc21	4.4%
66	O=C(CCCN1CCOCC1)c1ccc2c(c1)OCCO2	-19.4%
67	COc1ccc(Cl)cc1NC(=O)CN1CCc2ccccc2C1	-12.8%
68	COc1cccc(Cl)c1NC(=O)N1CCN(c2cc(C)nc3ccccc23)CC1	-2.6%
69	N#Cc1ccccc1OCC(=O)OCC(=O)NC1CCCCC1	-9.0%
70	CCN(CC)C(=O)c1sc2c(c1C)c(=O)n(-c1ccccc1)c(=O)n2Cc1c(C)cc(C)cc1C	12.4%
71	COc1cccc(N(C(=O)c2snc(C(N)=O)c2N)C(C(=O)NCC2CCCO2)c2cccs2)c1 (stereo not given)	11.0%
72	CC(C)c1cc2cc3ccc(=O)oc3cc2o1	3.2%
73	O=C(CCc1nnc(C2(c3ccc(Cl)cc3)CCC2)o1)N1CCCC1	9.1%
74	COc1ccc(CC(=O)Nc2cccc(C(=O)Nc3ccccc3C(=O)O)c2)cc1OC	-17.7%
75	COc1cccc(CN2CCc3nc(Nc4ccc5c(c4)OCCO5)ncc3C2)c1OC	9.3%
76	Cc1ccc(C(=O)COC(=O)CCC(=O)NC2CCCCC2)cc1C	-0.8%
77	CCOc1cc(C2c3c(oc4ccccc4c3=O)C(=O)N2c2nccs2)ccc1O (stereo not given)	-12.2%
78	COc1ccc(CNC(=O)C/C(C)=N/NC(=O)COc2ccc(Br)cc2)cc1	13.9%
79	COc1cc2c(cc1OC)C1CCN3C(=O)CCC3N1CC2 (stereo not given)	-8.2%
80	CSc1ccccc1NC(=O)CN(C)CC(=O)NCc1ccccc1	0.5%
81	Cc1ccccc1NC(=O)Cc1nc(COC(=O)c2ccc(NC(N)=O)cc2)cs1	4.5%
82	O=C(CC1C(=O)NCCN1Cc1ccc(F)cc1)NCCOc1cccnc1 (stereo not given)	?
83	Cc1nn(C)c(C)c1S(=O)(=O)N1CCc2ccccc21	16.9%
84	COCCn1c(SCC(=O)NC2CC2)nnc1-c1ccco1	-14.0%
85	Cc1cc(C)c2c(CC(=O)N(Cc3ccccc3)C3CCS(=O)(=O)C3)coc2c1 (stereo not given)	11.5%
86	O=C(COC(=O)/C=C/c1cccc(Cl)c1Cl)Nc1ccc2[nH]c(=O)[nH]c2c1	-17.3%
87	Cc1cc(-c2ccccc2)nc(Oc2cccc(C(F)(F)F)c2)c1S(C)(=O)=O	26.9%
88	COc1ccc(C)cc1NC(=O)CSc1nc2ccccc2nc1N1CC(C)OC(C)C1 (stereo not given)	-18.0%
89	CC(=O)CS(=O)(=O)c1ccc(Oc2ccc(S(=O)(=O)CC(C)=O)cc2)cc1	?
90	Cc1c(N=C2SC(CC(=O)Nc3ccccc3)C(=O)N2CCN2CCOCC2)c(=O)n(-c2ccccc2)n1C (stereo not given)	9.0%
91	c1ccc(-n2ncc3c2ncn2cnnc32)cc1	3.3%
92	Cc1ccc(C(C(=O)NCc2ccco2)N(CC2CCCO2)C(=O)Cn2nnc3ccccc32)cc1 (stereo not given)	-5.6%
93	CN1C(=O)C2(NCCc3c2[nH]c2ccccc32)c2ccccc21 (stereo not given)	12.6%
94	CCC/C(O)=C1\C(=O)CC(C)(C)CC1=Nc1ccccc1OC	-17.3%
95	Cc1ccc(O)c(C(CC(=O)N2CCCC2)c2ccccc2)c1 (stereo not given)	7.3%
96	O=C(OCc1nnc(-c2ccc([N+](=O)[O-])cc2)o1)c1ccc(F)c(S(=O)(=O)N2CCOCC2)c1	15.0%
97	O=C(O)CCC(=O)N1c2ccccc2NC2=C(C(=O)CC(c3ccc(F)cc3)C2)C1c1ccc([N+](=O)[O-])o1 (stereo not given)	0.1%
98	COc1ccc(C2=CC(=O)C[C@H](c3ccc(F)cc3)C2)cc1F	-20.3%
99	O=C(NCc1ccc(Cl)cc1)C1CCN(c2cnccn2)CC1	-2.6%
100	O=C(c1cccc(Cl)c1)N1CCN(C(=O)c2ccccc2F)CC1	-11.9%

Remaining list, next part:
No.	canonical_smiles	VDR inhibitor
101	CC1CCCCC1NC(=O)COC(=O)Cc1ccc(Br)cc1 (stereo not given)	-19.7%
102	COc1cc(NC(=O)Cc2ccc(Cl)cc2)ccc1NC(=O)c1ccco1	7.9%
103	COc1ccc(C(=O)c2c(N)c(-c3nc(-c4ccc(OC)cc4)cs3)c3ccccn23)cc1	12.1%
104	Cc1ccc(C(CC(=O)O)NC(=O)CCNC(=O)c2ccco2)cc1 (stereo not given)	23.7%
105	CC(SC(=S)N1CCOCC1)C(=O)O (stereo not given)	13.3%
106	O=C(NC1CC1)C1CC(=O)N(c2ccc(F)cc2)C1 (stereo not given)	17.1%
107	COC(=O)C(C(=O)OC)c1ccc(N)cc1	13.3%
108	Cc1ccc2c(c1)CC(C)N2S(=O)(=O)c1nnc(NC(=O)c2ccccc2F)s1 (stereo not given)	6.6%
109	COC(=O)c1ccc(-n2c(CCC(=O)O)ccc2-c2ccc(C)cc2)cc1	?
110	O=[N+]([O-])c1c(Nc2ccc(O)cc2)cc(N2CCOCC2)c2nonc12	-18.3%

Some of the entries above in another layout:
entry	VDR inhibitor	SMILES
101	-19.7%	CC1CCCCC1NC(=O)COC(=O)Cc1ccc(Br)cc1 (stereo not given)
106	17.1%	O=C(NC1CC1)C1CC(=O)N(c2ccc(F)cc2)C1 (stereo not given)
104	23.7%	Cc1ccc(C(CC(=O)O)NC(=O)CCNC(=O)c2ccco2)cc1 (stereo not given)
103	12.1%	COc1ccc(C(=O)c2c(N)c(-c3nc(-c4ccc(OC)cc4)cs3)c3ccccn23)cc1

The list goes on:
No.	canonical_smiles	VDR inhibitor
111	Cc1[nH]c(C)c(S(=O)(=O)N(C)Cc2ccccc2)c1C(=O)N1CCCC1	2.8%
112	Cc1cc(C)c2c(=O)cc(C(F)F)oc2c1	-10.3%
113	O=C(Nc1ccccc1F)c1ccc2nc(N3C(=O)CCC3=O)sc2c1	-3.8%
114	CC(NC(=O)c1cc2sccc2n1Cc1ccc(F)cc1)c1ccccc1 (stereo not given)	-1.8%
115	Cc1cccc(NC(=O)CN2CCN(C(=O)C(C)Oc3ccc(C#N)cc3)CC2)c1C (stereo not given)	-12.1%
116	CCN(CC)CCCNC(=O)c1cc2c(=O)[nH]c3ccc(C)cc3c2s1	4.9%
117	Cc1ccc(C(=O)Nc2ccc(-c3cn4cccnc4n3)cc2)cc1C	-4.5%
118	CCOC(=O)NN=C1c2ccccc2-c2ccccc21	-7.8%
119	N#CCCNS(=O)(=O)c1ccc(C(=O)OCC2CCCCC2)cc1	20.6%
120	COc1cc(/C=C/C(=O)OCC(=O)N2CCC(C)CC2)ccc1OCC#N	-0.2%
121	COc1cc(OC)c(OC)cc1/C=C/c1cc(C(F)(F)F)[nH]c(=O)n1	2.4%
122	CCN(CC(N)=O)S(=O)(=O)c1ccc(F)cc1	5.3%
123	CN(CCCN1CCOCC1)Cc1cn(C)nc1-c1ccccc1F	-10.6%
124	CCOC(=O)C1=C(C)NC(C)=C(C(=O)OCC)C1c1nc2ccccc2[nH]1	1.5%

This is a subset. The share of hits here may be higher or lower than overall.
